# CBX7 inh = CBX7 inhibition, primary AlphaScreen | O95931 | AlphaScreen His6-CBX7 / biotin-H3K27me3 peptide binding; active compounds read low | normalised signal (fraction of DMSO) (test concentration not listed) | actives 1.1% (n = 66,000); in the data active = normalised signal below about 0.5;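 note: 100 nL library stock added to about 20 µL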
# Target sequence (O95931 whole entry, looked up): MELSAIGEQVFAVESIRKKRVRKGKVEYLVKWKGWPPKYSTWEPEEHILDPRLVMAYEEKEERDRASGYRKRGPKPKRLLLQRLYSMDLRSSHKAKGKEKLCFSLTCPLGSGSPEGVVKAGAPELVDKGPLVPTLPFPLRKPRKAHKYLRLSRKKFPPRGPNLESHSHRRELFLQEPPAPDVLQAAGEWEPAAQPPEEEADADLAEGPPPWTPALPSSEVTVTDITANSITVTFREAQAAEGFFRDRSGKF
# CBX7 inh z-score = further read-out of CBX7 inh, marked with its call; z-score; measured here: z-score of CBX7 signal; some inactives read as strong as hits; reference of the scale not given here;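 same signal on another scale; lower means less binding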
# An asterisk follows results filed as active. Some of the compounds tested; the hit share may differ from the screen's.
Molecule | CBX7 inh | CBX7 inh z-score
CCOCCCNC(=O)c1ccc2c(c1)nc(C)n2-c1ccc(OC)cc1 | 1 | 0.38
COc1ccc(CNC(=O)CCCN2C(=O)CSc3ncccc32)cc1 | 1 | 0.12
NC(=O)c1oc2ccccc2c1NC(=O)COc1ccc(Cl)cc1Cl | 1 | -0.011
Cc1nc2c(C(=O)NCCc3ccccc3)c[nH]n2c(=O)c1Cc1ccc(F)cc1Cl | 1 | -0.00089
Cc1cccc(NC(=O)CSc2nccn2-c2cccc(C)c2C)c1 | 0.84 | -0.16
CCCCNC(=O)c1oc2ccc(S(=O)(=O)N(C)C3CCCCC3)cc2c1C | 1.1 | 0.89
CCCCC(=O)Nc1c(-c2cccs2)nc2ccccn12 | 1 | 0.91
Cc1ccc(Cn2c(=O)cc(C(=O)NCCC3=CCCCC3)c3ccccc32)cc1 | 0.96 | -0.41
Cc1cc(=O)n2[nH]c(C)c(-c3ccc(Cl)cc3)c2n1 | 0.81 | -3.3
Cc1ccc(-c2nnc(N3CCC(C)CC3)c3ccccc23)cc1C | 0.86 | -3.5
COc1ccc(CNC(=O)C2CCCN(S(C)(=O)=O)C2)cc1 (stereo not drawn) | 1 | 0.66
CCOc1cc2c(cc1OCC)C(c1ccc(C)c(C)c1)NCC2 (stereo not drawn) | 1.3 | 2.9
Cc1nc2ccc(S(=O)(=O)NC(CC(C)C)C(=O)NCCc3ccc(Cl)cc3)cc2s1 (stereo not drawn) | 0.97 | -1
COCCN1C(=O)Cn2cccc2C1C(=O)NC1CCC(C)CC1 (stereo not drawn) | 0.91 | -1.7
Cc1ccccc1Nc1c(-c2c(F)cccc2Cl)nc2ccccn12 | 0.89 | -4
O=C(Nc1ccc(Cl)cn1)c1cnc(N2CCN(c3ncccn3)CC2)c2ccccc12 | 1.1 | 2.4
O=C1CC(c2nc3ccccc3n2Cc2ccccc2)CN1c1ccccc1 (stereo not drawn) | 0.83 | -1.9
CNC(=O)c1sc2nc(-c3ccccc3)cn2c1C | 0.96 | -0.86
CCCCOc1ccc(C(=O)Nc2scc(C3COc4ccccc4O3)c2C(=O)OCC)cc1OC (stereo not drawn) | 1 | 0.078
CN(C)C(CNC(=O)c1cccs1)c1cccnc1 (stereo not drawn) | 0.97 | -0.24
COc1ccc(N2C(=O)CCC(C(=O)NC(C)C)C2c2ccc(OC)c(OC)c2)cc1 (stereo not drawn) | 1.2 | 3.2
O=C(CCc1nc2sc3c(c2c(=O)[nH]1)CCCC3)NC1CC1 | 1.1 | 0.23
Cc1cc2nc(-c3cc(NC(=O)c4cccc(Br)c4)ccc3O)oc2cc1C | 1.1 | 0.81
Cc1[nH]c2ccc(OC(F)(F)F)cc2c1CCNC(=O)c1cccnc1 | 0.93 | -0.96
COc1ccc(C(CC(=O)NCC2(c3ccccc3)CCOCC2)c2ccccc2)cc1 (stereo not drawn) | 0.75 | -2.9
COc1cccc(C(=O)Nc2ccc3nc4n(c(=O)c3c2)CCCCC4)c1 | 0.98 | -0.63
Cc1cc(N2CCN(C)CC2)nc2ccc(NC(=O)CCC(=O)NCCN(C)C)cc12 | 1.1 | 1.5
CCC(C)NC(=O)C1CCCN(Cc2nc(-c3ccccc3F)oc2C)C1 (stereo not drawn) | 0.99 | -0.052
CC(NC(=O)CSCc1cccs1)c1ccccc1 (stereo not drawn) | 1 | 2.1
Cc1c(C(=O)Nc2ccc(Oc3ccccc3)cc2)oc2ccc(S(=O)(=O)N3CCOCC3)cc12 | 1.1 | 1.1
Cc1ccc(-c2noc(CCC(=O)NCc3ccccn3)n2)cc1 | 1.1 | 0.069
O=C(CSc1ccc2nnc(-c3ccccc3)n2n1)N1CCCCCC1 | 1 | -0.056
Cc1ccccc1NC(=O)c1cnc2ccccn2c1=O | 0.81 | -2.7
O=C1CC(c2cccnc2)c2cc3c(cc2N1)OCO3 (stereo not drawn) | 1 | 0.012
CC(C)OC(=O)c1c(NC(=O)C(C)Oc2ccc(F)cc2)sc2c1CCCC2 (stereo not drawn) | 1.2 | 0.38
Cc1ccccc1CN1C(=O)C(O)(CC(=O)c2ccc(Cl)cc2)c2ccccc21 (stereo not drawn) | 0.87 | -0.31
O=C(NCc1ccc2c(c1)OCO2)c1ccc(C#Cc2ccccc2)cc1 | 1 | 0.19
COCCCNC(=O)c1ccc2c(c1)N=C(C)c1cc(Cl)ccc1S2 | 0.93 | -1.1
Cc1cc(N2CCN(C)CC2)nc2ccc(NC(=O)C(C)Oc3ccc(Cl)cc3Cl)cc12 (stereo not drawn) | 1.1 | 2.1
O=C(N1CCN(c2cccc(Cl)c2)CC1)C1(S(=O)(=O)c2ccc(Cl)cc2)CC1 | 1 | 0.52
COCCCNC(=O)Cn1ccc2ccccc2c1=O | 1.2 | 2
COc1ccccc1NC(=O)c1cc(-c2ccccc2)nc2ccc(Cl)cc12 | 0.99 | -0.15
Cc1ccc(C(=O)Nc2nc3c(s2)C(=O)CC(C)(C)C3)cc1 | 1 | 0.69
COc1cccc(-c2nc(CS(=O)(=O)CC(=O)N3CCN(Cc4ccccc4)CC3)c(C)o2)c1 | 0.99 | -0.22
Cc1ccccc1OCC(=O)Nc1ccc(-c2nc3ccccc3s2)cc1 | 1 | 1.4
CCOC(=O)c1cnc2cc(C(F)(F)F)ccc2c1Nc1ccc(F)cc1F | 0.98 | -0.3
CC(C)(O)C#Cc1ccc(C(=O)Nc2ccc(OC(F)(F)F)cc2)cc1 | 1 | 0.27
O=C(Nc1ccc(F)cc1F)C1CCN(S(=O)(=O)c2cccc3cccnc23)CC1 | 1 | 0.41
CCc1nc2ccccc2n1CC(O)COc1ccc(C(=O)O)cc1 (stereo not drawn) | 1 | 0.089
Cn1c(SCc2nc(-c3ccccc3)no2)nnc1-c1cccs1 | 0.99 | -0.17

# (listing goes on)
Molecule | CBX7 inh | CBX7 inh z-score
CCOC(=O)c1cnc2ccccc2c1Nc1cccc(Cl)c1 | 0.84 | -1.7
O=S(=O)(Nc1ccc(F)cc1)c1cccc(S(=O)(=O)c2ccccc2)c1 | 0.97 | -0.83
C=CCn1c(CCCNC(=O)c2ccc(F)cc2)nc2ccccc21 | 1 | 0.037
CCOc1ccc(CNC(=O)c2cc(=O)[nH]c3ccc(S(=O)(=O)N4CCCCC4)cc23)cc1 | 0.76 | -2.8
CN(C)c1ccc(CNC(=O)C2CCN(S(=O)(=O)c3ccc4c(c3)CCC(=O)N4)CC2)cc1 | 0.89 | -1.3
O=C(Nc1cc(C(F)(F)F)ccc1Cl)c1cc(-c2ccc3c(c2)OCO3)on1 | 1.3 | 2.2
N=c1n(CCO)c2ccccc2n1CCOc1ccccc1Cl | 0.96 | -0.23
Cc1ccc(Cn2c(=O)n(Cc3ccccc3Cl)c(=O)c3cccnc32)cc1 | 0.97 | -0.52
Cc1c(C(=O)N2CC(C)CC(C)C2)sc2ncn(CC(=O)N3CCC(C)CC3)c(=O)c12 (stereo not drawn) | 0.92 | -0.53
O=C(NCc1ccc(F)cc1)c1cc(-c2ccc3c(c2)OCO3)on1 | 0.98 | -0.54

# Reprinted at random: three entries already listed, in no set order.
Molecule | CBX7 inh | CBX7 inh z-score
CCOc1cc2c(cc1OCC)C(c1ccc(C)c(C)c1)NCC2 (stereo not drawn) | 1.3 | 2.9
CC(C)(O)C#Cc1ccc(C(=O)Nc2ccc(OC(F)(F)F)cc2)cc1 | 1 | 0.27
O=C(CSc1ccc2nnc(-c3ccccc3)n2n1)N1CCCCCC1 | 1 | -0.056

# The results go on.
Molecule | CBX7 inh | CBX7 inh z-score
c1ccc(-c2nnc3sc(CN4CCc5ccccc54)cn23)cc1 | 1 | 0.39
O=C(NCc1cccnc1)c1ccc2c(=O)n(CCc3ccccc3)c(=O)[nH]c2c1 | 0.98 | -0.56
Cc1ccc(-c2noc(/C=C/c3ccccc3)n2)cc1 | 1.4 | 1.5
Cc1nc2cc(Nc3nnc(-c4ccccc4)c4ccccc34)ccc2n1C | 0.76 | -4.5
CCC1Oc2ccccc2N(CC(=O)NC2CCCCC2C)C1=O (stereo not drawn) | 0.82 | -1.9
CCCCN(CC)C(=O)Cn1nc(Cc2ccncc2)c2ccccc2c1=O | 1 | 0.5
COc1ccc(C2(CNC(=O)CC(c3ccccc3)c3ccccc3)CCCC2)cc1OC | 0.93 | -0.82
Cc1ccc(-c2nc3ccccn3c2NC(=O)c2ccccc2)cc1 | 0.97 | -0.77
COc1ccc(-n2cnc3sc(C)c(C)c3c2=O)cc1 | 1.4 | 0.9
CCC1=Nc2cc(C(=O)NCC(C)c3ccccc3)ccc2Sc2ccc(C)cc21 (stereo not drawn) | 0.98 | -0.82
Cc1ccc(S(=O)(=O)NC(Cc2ccccc2)C(=O)Nc2nc(C)cs2)cc1 (stereo not drawn) | 0.97 | -0.98
COc1ccccc1CNC(=O)c1cc(Sc2ccc(C)cc2)nc2ccccc12 | 1.2 | 3.9
O=C(Nc1ccccc1-c1nc2ccccc2[nH]1)c1cccc(Br)c1 | 1.1 | 1.5
CC1CCCN(S(=O)(=O)c2ccc(C(=O)Nc3sc4c(c3C(N)=O)CCN(C)C4)cc2)C1 (stereo not drawn) | 0.99 | -0.41
CC1CC(C)CN(CCCNC(=O)c2csc3c2CCCC3)C1 (stereo not drawn) | 1 | 1.2
O=C(Nc1ccc2oc(-c3cc(Br)ccc3Cl)nc2c1)c1cccc(F)c1 | 1 | 0.85
CC(C)c1ccc(NC(=O)C(c2ccccc2)N2CCOCC2)cc1 (stereo not drawn) | 1.1 | 0.81
O=P(c1ccccc1)(c1ccccc1)c1nc(-c2ccc(Cl)cc2)oc1N1CCOCC1 | 1 | 0.0003
CCN(CC)c1cc(C)c2cc(NC(=O)c3cccnc3Cl)ccc2n1 | 0.95 | -2.5
CC1CCN(c2nc(-c3ccccc3)c3c(c2C#N)CC(C)(C)OC3)CC1 | 1.4 | 5.3

# Six compounds from above, arranged by the value under CBX7 inh z-score, descending:
canonical_smiles | CBX7 inh z-score
O=C(Nc1ccccc1-c1nc2ccccc2[nH]1)c1cccc(Br)c1 | 1.5
O=C(Nc1ccc2oc(-c3cc(Br)ccc3Cl)nc2c1)c1cccc(F)c1 | 0.85
CC(C)c1ccc(NC(=O)C(c2ccccc2)N2CCOCC2)cc1 (stereo not drawn) | 0.81
CC1CCCN(S(=O)(=O)c2ccc(C(=O)Nc3sc4c(c3C(N)=O)CCN(C)C4)cc2)C1 (stereo not drawn) | -0.41
Cc1ccc(S(=O)(=O)NC(Cc2ccccc2)C(=O)Nc2nc(C)cs2)cc1 (stereo not drawn) | -0.98
CCN(CC)c1cc(C)c2cc(NC(=O)c3cccnc3Cl)ccc2n1 | -2.5

# (further entries)
Molecule | CBX7 inh | CBX7 inh z-score
Cc1ccc(NC(=O)Cn2nc(Cc3cccnc3)c3ccccc3c2=O)c(Cl)c1 | 0.74 | -0.34
N#CC1C2CCC(C2)C1C(=O)c1ccccc1 (stereo not drawn) | 0.96 | -0.4
Cc1cc(NC(=O)CN2CCN(CCO)CC2)no1 | 0.81 | -3
COc1ccc(OC)c(-c2cc(C(=O)NCc3cccs3)no2)c1 | 0.98 | -0.49
O=c1cc(Cc2nnc(SCc3c(F)cccc3Cl)n2-c2ccc(F)cc2)[nH]c(=O)[nH]1 | 1.1 | 0.11
c1ccc(CC2CCN(c3nc4nonc4nc3Nc3ccc4c(c3)OCO4)CC2)cc1 | 0.81 | -3.2
COc1cccc(OCCCCn2c(-c3ccc(Cl)cc3)nc3ccccc3c2=O)c1 | 1.5 | 5
CCCN(CCC)CCNC(=O)CC1Oc2ccccc2NC1=O (stereo not drawn) | 1.1 | 0.73
Cc1ccc(NC(=O)C2(N3CCN(c4ccccc4)CC3)CCCCC2)cc1 | 0.8 | -3.6
O=C(c1ccccc1)c1ccc(-c2[nH]c(-c3ccc(Cl)cc3Cl)nc2-c2ccccc2)cc1 | 0.99 | -0.15
N#CCNC(=O)c1cc2nc(-c3cccs3)cc(C(F)(F)F)n2n1 | 1.1 | 3
CN(C)c1ccc(C2C(N3C(=O)c4ccccc4C3=O)C(=O)N2c2ccc(Br)cc2)cc1 (stereo not drawn) | 0.75 | -8.9
O=C1CC(N2CCN(C(c3ccccc3)c3ccccc3)CC2)C(=O)N1c1ccc(Cl)c(C(F)(F)F)c1 (stereo not drawn) | 1.2 | 0.41
Nc1nonc1-c1nc2ccccc2n1CC1CC1 | 1.1 | 2.8
Fc1cc(Cl)ccc1CSc1nc2ncccc2[nH]1 | 1.1 | 3
Cc1ccc(Cl)cc1NC(=O)CCc1c(C)nc2cc(-c3cccc(F)c3)nn2c1C | 1.1 | 2.2
CCOP(=O)(OCC)c1nc(Cc2ccccc2)oc1NCc1ccccc1 | 0.82 | -1.1
COc1ccc(N2CCN(C(=O)Cc3c(C(=O)O)[nH]c4ccccc34)CC2)cc1 | 0.97 | -0.63
Cc1ccc(OCCCCc2c(C)n[nH]c2C)cc1C | 0.88 | -0.16
CCOC(=O)Cn1c(-c2nonc2NC(=O)c2ccccc2F)nc2ccccc21 | 1 | 0.19
COc1cc2[nH]c(=O)n(CCCC(=O)N3CCN(c4ccc(Cl)cc4)CC3)c(=O)c2cc1OC | 1 | 0.26
Cc1ccc(C(=O)Nc2c3c(nn2-c2ccc(F)cc2)CS(=O)(=O)C3)cc1 | 0.98 | -0.2
COc1cc2ccccc2cc1C(=O)Nc1ccc2oc(-c3ccc(Br)cc3)nc2c1 | 1.1 | 1.2
CCCCCCCNC(=O)c1cc(=O)[nH]c2ccc(S(=O)(=O)N3CCCCCC3)cc12 | 0.89 | -1.2
CCn1cc(C(=O)Nc2cc(OC)ccc2OC)c(=O)c2ccc(C)nc21 | 1 | -0.037
CCOC(=O)c1cnc2c(C)cc(Cl)cc2c1Nc1ccc(OCC)cc1 | 1 | 0.031
CCOc1ccc(N2C(=O)CC(N3CCC(C(=O)O)CC3)C2=O)cc1 (stereo not drawn) | 0.87 | -2
CCC(=O)N1CCc2cc(S(=O)(=O)NCc3cccc(OC)c3)ccc21 | 1.1 | 1.7
Cc1c(C)n(CC(O)CN2CCOCC2)c2ccccc12 (stereo not drawn) | 0.96 | -1
CCCn1c(=N)n(CC(O)COc2ccc(OC)cc2)c2ccccc21 (stereo not drawn) | 0.99 | -0.068
CCOc1ccc(NC(=O)C2CCCN(S(=O)(=O)c3cccnc3)C2)cc1 (stereo not drawn) | 0.99 | -0.19

# From PubChem BioAssay
